HPGD block = HPGD (human) dehydrogenase inhibition. P15428. purified HPGD, NADH fluorescence kinetic, PGE2 substrate. AID 894. 4.3% of 150,000 active. Potency, µM, for inactives: at the top dose activity change, negative = inhibition, hits mostly inhibitors; active = well fitted inhibition curve with a large enough effect (not every such curve was filed as active); inconclusive = small, poorly fitted or top-dose-only effect, or another doubt; inactive = no such curve, though single readings can be large or run the other way;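 further: top concentration of the series not given in the record; plate controls included wells without enzyme; inactives centre near -10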
Target sequence (P15428 whole entry, looked up): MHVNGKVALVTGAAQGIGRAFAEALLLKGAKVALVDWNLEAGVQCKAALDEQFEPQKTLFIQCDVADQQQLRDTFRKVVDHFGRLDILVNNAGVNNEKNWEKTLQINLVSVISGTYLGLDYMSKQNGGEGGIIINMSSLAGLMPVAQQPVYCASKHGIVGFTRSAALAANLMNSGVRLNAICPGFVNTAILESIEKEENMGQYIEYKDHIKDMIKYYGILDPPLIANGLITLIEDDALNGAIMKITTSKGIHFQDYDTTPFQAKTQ
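NADH formation kinetics: reaction with 30 uM PGE2 and 1 mM NAD+ (final), 20 nM enzyme, Tris-HCl pH 8 with Tween 20, after 15 min compound preincubation at room temperature. Fluorescence change, last versus first of five reads.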
* = called active by the depositor; ? = inconclusive. On the % scale 0 is the no-effect control and ±100 the full control effect; potency means the concentration at half of the fitted maximal effect. This is a subset (hit frequency here may not be typical).

SMILES	HPGD block
O=S(NCc1ccccc1)C12CC3CC(CC(C3)C1)C2 (configuration not stated)	-22%
O=C(O)NCc1ccccc1 (tested in a mixture with another compound)	-5%
COc1ccc(C2CC(c3ccccc3Cl)Nc3ncnn32)cc1OC (configuration not stated)	-11%
Cc1ccc(NC(=O)c2ccc3c(c2)OCCO3)cc1	?
N=C1c2ccccc2CN1NC(=O)c1cccc(S(=O)(=O)N2CCCCC2)c1	-5%
CC(=O)c1sc2nc(-c3cccs3)ccc2c1N	?
Cc1cc(C)c(N2C(=NC(=O)CCCC(=O)O)SC3CS(=O)(=O)CC32)c(C)c1 (configuration not stated)	-8%
Cc1ccccc1-c1nnc2s/c(=C\c3ccc(N(C)C)cc3)c(=O)n12	-9%
CCOC(=O)c1c(CC(C)C)csc1NC(=O)COC(=O)c1cc(OC)c(OC)cc1[N+](=O)[O-]	-22%
COC(=O)c1ccc(NC(=O)C(C)Oc2ccccc2)cc1 (configuration not stated)	-2%
CC(C)(C)c1cc(CCC(=O)NNC(=S)NC(=O)c2ccccc2)cc(C(C)(C)C)c1O	-18%
N#CC1=C(S)N(c2ccccc2)C2(CCCCC2)NC1=O	-22%
Cc1ccc(C(C)C)c(O)c1	-11%
CC(C)Oc1cccc(-c2cc(C(=O)NC(=S)N(C)c3ccccc3C(=O)O)c3ccccc3n2)c1	?
Cc1ccccc1NCC(=O)c1ccc(Br)cc1	-16%
O=C(NC1CCCCCC1)c1cc2n(n1)C(C(F)(F)F)CC(c1ccco1)N2 (configuration not stated)	-9%
COC(=O)C1=C(C)NC(=O)NC1c1cccc(OC)c1OCc1ccccc1 (configuration not stated)	-8%
Cc1cc(C)c(C)c(OCc2nc(-c3cccnc3)no2)c1	1%
CN(CC(=O)Nc1cccc2c1CCCC2)S(=O)(=O)c1ccc(Br)cc1	-3%
COc1cccc(OC)c1C(=O)N1CCN(Cc2ccccc2C)CC1	-3%
Cc1cc(NC(=O)/C=C/c2ccc(F)cc2)n(-c2nc3ccccc3[nH]2)n1	-10%
CC(C)C[C@H]1COC(c2ccc(Br)cc2)=N1	-14%
O=C(CSc1nnc(CNC(=O)c2cccs2)o1)c1ccccc1	-23%
Cc1c([N+](=O)[O-])cc(C(=O)N2CCOCC2)cc1[N+](=O)[O-]	-13%
COc1ccc(CCCc2nnc(SCC(=O)Nc3cc(C)c(C)cc3Br)o2)cc1	-7%
COc1ccc(-n2c(O)c(C=NC3CC3)c(=O)[nH]c2=O)cc1	-22%
CC(=O)Oc1ccccc1C1OC(=O)c2ccccc2N1C(C)=O (configuration not stated)	-16%
COc1cc(C)c(S(=O)(=O)n2nnc3ccccc32)cc1C	-14%
Cc1sc2c(c1C)c(=O)nc1scc(CC(=O)O)n12	0%
COc1ccc(-n2c(SC)nc(O)cc2=O)cc1	1%
CCN(CC)CCNC(=O)CCn1c(=S)[nH]c2cc3c(cc2c1=O)OCO3	-15%
O=c1cc(CSc2nnc(COc3ccccc3)n2-c2ccccc2)c2ccccc2[nH]1	-10%
COCCN(CCOC)S(=O)(=O)c1ccc(C(=O)Nc2sc3c(c2C(N)=O)CCCCC3)cc1	?
O=C(/C=C/c1ccccc1Cl)Nc1ccc(-c2nnc3n2CCCCC3)cc1	4µM*
COc1ccc(C(=O)NCCN2C(=O)S/C(=C\c3cccnc3)C2=O)c(OC)c1OC	-17%
O=c1c2[nH]c3ccc(F)cc3c2ncn1CCN1CCN(Cc2ccccc2)CC1	-4%
Cc1cccn2c(=O)c3cc(C#N)c(=NC(=O)c4ccccc4)n(Cc4ccco4)c3nc12	?
CCOc1cc(C)nc(N2CCN(C3CCCCC3)CC2)n1	-11%
COc1cc(O)oc1C=Nc1ccccc1	-26%
O=C(c1cccc(F)c1)N1CCC2(CCCN(Cc3cc(C(F)(F)F)cc(C(F)(F)F)c3)C2)CC1	-6%
COc1cc(CN2C(=O)C(NC(=O)c3ccco3)(C(F)(F)F)C3=C2CC(C)(C)CC3=O)cc(OC)c1 (configuration not stated)	-6%
Cc1ccc(C[n+]2cccc(-c3ccccc3)c2)c(C)c1	0%
CCOc1ccc(C(F)(F)F)cc1NC(=O)COc1ccc(C(F)(F)F)cc1[N+](=O)[O-]	-3%
CCCn1c(NC(=O)c2cccc(C)c2C)nc2ccccc21	-12%
Cc1cc(Cl)c(S(=O)(=O)NC2CCCCC2)cc1OCC(=O)Nc1nncs1	-2%
Cc1ccc2nc3c(cc(C#N)c(=O)n3-c3nccs3)c(=O)n2c1	?
N#CC1=C(N)Oc2n[nH]c(-c3cccs3)c2C1c1cccnc1 (configuration not stated)	-24%
Clc1ccc2nc(-c3ccncc3)cc(-c3ccccc3)c2c1	-9%

Some of these compounds in order of count of non-hydrogen atoms, falling.
SMILES	HPGD block
Cc1cc(Cl)c(S(=O)(=O)NC2CCCCC2)cc1OCC(=O)Nc1nncs1	-2%
Cc1cc(NC(=O)/C=C/c2ccc(F)cc2)n(-c2nc3ccccc3[nH]2)n1	-10%
Cc1ccc(NC(=O)c2ccc3c(c2)OCCO3)cc1	?

(next part)
SMILES	HPGD block
Cc1nc(N2CCN(Cc3ccccc3)CC2)nc2c1C(=O)CC(C)C2 (configuration not stated)	-15%
Cc1cccc(Sc2c([N+](=O)[O-])ncn2C)c1	5µM*
O=C(COC(=O)c1cccnc1Nc1cccc(C(F)(F)F)c1)NCCN1C(=O)CSC1=O	-18%
CCN(CC)CCNC(=O)c1ccccc1N	?
COc1cc(-c2nnc3n2N=C(c2ccccc2)CS3)cc(OC)c1OC	-17%
CCCCN(CC)C(=O)CN1C(=O)c2ccccc2C1=O	-1%
O=[N+]([O-])c1cc(-c2nc(-c3ccncc3)no2)ccc1Cl	-3%
CCCSc1nc2c(cnn2-c2ccccc2)c(=O)[nH]1	-17%
COc1cc(/C=N/Nc2cccc(C)c2)ccc1OC(=O)c1ccco1	-13%
O=C(O)c1c2ccccc2cc2ccccc12	?
Cc1ccnc(NS(=O)(=O)c2ccc(N3C(=O)c4ccccc4C3=O)cc2)n1	-7%
CCCCNC(=O)CC1N=C2c3ccccc3N=C(SCC(=O)Nc3ccccc3C)N2C1=O (configuration not stated)	?

6 compounds drawn at random from those above, as already listed:
SMILES	HPGD block
COc1cc(-c2nnc3n2N=C(c2ccccc2)CS3)cc(OC)c1OC	-17%
CCCCNC(=O)CC1N=C2c3ccccc3N=C(SCC(=O)Nc3ccccc3C)N2C1=O (configuration not stated)	?
O=C(O)c1c2ccccc2cc2ccccc12	?
O=[N+]([O-])c1cc(-c2nc(-c3ccncc3)no2)ccc1Cl	-3%
Cc1cccc(Sc2c([N+](=O)[O-])ncn2C)c1	5µM*
CCCCN(CC)C(=O)CN1C(=O)c2ccccc2C1=O	-1%

Carrying on.
SMILES	HPGD block
CN(Cc1nc2ccccc2n1C)S(=O)(=O)c1ccc(Cl)cc1	-12%
CC1CCCCN1C(=S)Nc1ccc(OC(F)F)cc1 (configuration not stated)	3%
CCOC(=O)c1cnc(-n2nc(C)cc2C)nc1Nc1ccc(C)cc1	-3%
Cc1cc(C)nc(NS(=O)(=O)c2ccc(NC(=O)CCCN3C(=O)c4ccccc4C3=O)cc2)n1	-10%
Nn1c(SCc2nc3ccccc3[nH]2)nnc1C1CCCCC1	-2%
Cc1cc(C)cc(N(C(C)C(=O)N2CCCCC2)S(C)(=O)=O)c1 (configuration not stated)	-8%
O=C(Nc1ccc2c(c1)OCO2)C1CC(c2c(F)cccc2Cl)=NO1 (configuration not stated)	-12%
O=C(CN1CCN(Cc2ccc3c(c2)OCO3)CC1)Nc1ccc2c(c1)OCO2	-8%
O=C(OCc1ccccc1Cl)c1ccc(-n2cnnc2)cc1	-13%
O=C(NCCN1CCCCCC1)C1CCN(S(=O)(=O)N2CCOCC2)CC1	-13%
Cc1c(Br)c(C(N)=O)nn1C	-4%
CCOC(=O)c1ccccc1NC(=O)c1c(O)c2ccccc2n(CC)c1=O	-20%
Cn1cnc([N+](=O)[O-])c1Nc1ccccc1O	-3%
CN(C)c1nc(-c2ccccc2)nc(-c2ccc(Cl)cc2)c1C#N	?
COC(=O)c1c(C)[nH]c(C(=O)OCC(=O)NCC(C)C)c1C	-3%
Cc1cc([N+](=O)[O-])nn1CC(=O)NNC(=S)Nc1ccc(Cl)cc1	-5%
Cc1ccc2nc3sc(C(=O)Nc4c(C)[nH]c(=O)[nH]c4=O)c(N)c3cc2c1	-9%
O=C(Nc1ccccc1)c1cc(-c2ccccc2Cl)no1	?
Cc1c(OC(=O)c2ccc([N+](=O)[O-])cc2)c2c(c[n+]1C)COC(C)(C)OC2	-12%
Cc1cc(OCCn2cc(/C(N)=N/O)c3ccccc32)ccc1Cl	-12%
Fc1ccc(N2CCN(Cc3nnc(-c4ccccc4)o3)CC2)cc1	-15%
CC1(C)NC(=O)N(CNc2cc(Cl)ccc2Cl)C1=O	-3%
O=C(Nc1nnc(-c2cccs2)o1)c1cccc(C(F)(F)F)c1	-18%
Cc1cc(Cl)c(S(=O)(=O)NC(C(=O)O)C(C)C)cc1OCC(=O)NC1CCCCC1 (configuration not stated)	-18%
O=C(O)c1ccccc1	-5%
COc1ccc(CCNS(=O)(=O)c2cccc3nsnc23)cc1OC	1%
CC(=O)N1CCCc2cc(S(=O)(=O)N(C)Cc3ccccc3)ccc21	32µM*
COc1cccc(/C=N/n2c(CO)nc3ccccc32)c1OC	-11%
COC(=O)CCC(=O)OC1(C)C(=O)C2=CN(CC3CC3)C(c3ccc(OC)cc3)=CC2=C(Br)C1=O (configuration not stated)	-5%
CCNS(=O)(=O)c1ccc(NS(C)(=O)=O)cc1	-11%
O=C(NCCN1CCOCC1)c1cc(=O)[nH]c2ccc(Br)cc12	-8%
NC(=S)Nc1cccc2cc3ccccc3cc12	-17%
OC(COCc1ccccc1)Cn1cnc2ccccc21 (configuration not stated)	0%
CCNC(=O)COc1ccc(S(=O)(=O)Nc2ccccc2)cc1	1%
Cc1cccc(COc2ccccc2/C=N/Nc2ccc([N+](=O)[O-])cc2)c1	-8%
CCc1c(C(=O)Nc2ccc(OC)cc2)[nH]c(C)c1C(C)=O	-13%
CC(C(=O)NCCN1C(=O)S/C(=C\c2cccs2)C1=O)N1C(=O)c2ccccc2C1=O (configuration not stated)	-5%
COC(=O)N1CCC2(CCCN(C(c3ccccc3)c3ccccc3)C2)CC1	1%
Clc1ccc(CNCc2cccs2)cc1Cl	-9%
O=C(NC1CCCC1)C1(c2ccccc2)CCN(S(=O)(=O)c2ccccc2)CC1	-8%
COC(=O)c1[nH]c2ccc(Br)cc2c1NC(=O)CN1CCCCC1CCO (configuration not stated)	-4%
COc1ccc(-c2csc(/C(C#N)=C\c3cccc([N+](=O)[O-])c3)n2)cc1	-11%
Cc1ccc(NC(=O)CN2CCC(C(=O)c3ccc(F)cc3)CC2)cc1	-3%
COc1ccc2c(c1)C1=NN(/C(C)=C\C(C)=O)C(c3ccccc3)C1CC2 (configuration not stated)	-17%
CC1Cc2ccccc2N1C(=O)C1CCCN(S(=O)(=O)c2cccc3cccnc23)C1 (configuration not stated)	-9%
Cc1cc2c(=O)n(Cc3ccco3)c(SCC(=O)NCc3ccco3)nc2s1	-18%
Cc1nnc(SCC(=O)Nc2ncc(S(=O)(=O)c3ccc([N+](=O)[O-])cc3)s2)s1	-17%
COc1cccc(C2CC(c3cccs3)=NN2C(=O)CSc2nc3ccccc3o2)c1OC (configuration not stated)	?
COc1cc2c(cc1OC)C(c1ccccc1O)N(C1CC(=O)N(c3ccccc3)C1=O)CC2 (configuration not stated)	-13%
N#CCC(=O)N/N=C/c1ccc(OS(=O)(=O)c2ccccc2)cc1	-16%
COc1ccc(-c2cnnn2-c2ccc(NC(=O)/C=C/c3ccc(OC)c(OC)c3)cc2)cc1	?
COc1ccc(/C=C/C(=O)NC(C)(C)C)cc1S(=O)(=O)N1CCOCC1	-9%
CC(OC(=O)CNS(=O)(=O)/C=C/c1ccccc1)C(=O)Nc1ccc(S(=O)(=O)N2CCCC2)cc1 (configuration not stated)	-10%
COc1cc2c(cc1OC)-c1cc3nc4ccccc4nc3n1C(C)(C)C2	?
S=C(NCc1ccncc1)Nc1ccc(Cl)cc1	-10%
COc1cc2c3cc1Oc1c(OC)c(OC)cc4c1[C@@H](Cc1ccc(O)c(c1)Oc1ccc(cc1)C[C@@H]3N(C)CC2)CN(C)C4	-10%
CCCC[C@H]1C[C@@H]1[C@@H]1N(P(=O)(c2ccccc2)c2ccccc2)[C@](CO)(c2ccccc2)CC12CC2	-15%
c1ccc(SCc2nc3ccccc3[nH]2)cc1	-2%
O=C(NC1CCCc2ccccc21)c1cccnc1 (configuration not stated)	-4%
O=C(Cn1cnc2ccc(Br)cc2c1=O)c1cccs1	-3%
(cont.)
SMILES	HPGD block
O=C(Cn1cnc2ccccc2c1=O)c1cccs1	-13%
COc1ccc(/C=C/C(=O)NC(=S)NNC(=O)Cc2cccs2)cc1	-17%
Cc1ccc(-c2nc(S(=O)(=O)c3ccc(F)cc3)c(SCC(=O)NCC3CCCO3)o2)cc1 (configuration not stated)	-22%
CCCCCn1c(CN2CCN(c3cccc(Cl)c3)CC2)nc2c1c(=O)[nH]c(=O)n2C	-1%
COC(=O)C1=C(O)/C(=C\c2ccc(CNC(=O)C(=O)Nc3ccc(C)c(C)c3)o2)N=C1C	-6%

In the list so far, seven contain a cyano group:
SMILES	HPGD block
N#CC1=C(S)N(c2ccccc2)C2(CCCCC2)NC1=O	-22%
Cc1cccn2c(=O)c3cc(C#N)c(=NC(=O)c4ccccc4)n(Cc4ccco4)c3nc12	?
Cc1ccc2nc3c(cc(C#N)c(=O)n3-c3nccs3)c(=O)n2c1	?
N#CC1=C(N)Oc2n[nH]c(-c3cccs3)c2C1c1cccnc1 (configuration not stated)	-24%
CN(C)c1nc(-c2ccccc2)nc(-c2ccc(Cl)cc2)c1C#N	?
COc1ccc(-c2csc(/C(C#N)=C\c3cccc([N+](=O)[O-])c3)n2)cc1	-11%
N#CCC(=O)N/N=C/c1ccc(OS(=O)(=O)c2ccccc2)cc1	-16%

Screening results deposited in PubChem by National Center for Advancing Translational Sciences (NCATS).
